TRPV1 PAM: enhances activation of the human vanilloid receptor TRPV1. TRPV1-expressing cells, Fluo-8 calcium influx, capsaicin EC20 potentiation; host cell line not named in the record; control for the full effect not named in the record. 0.02% of 320,000 active. AID 540277. potentiation, % at 8.33 µM. Q8NER1; active means potentiation above 80%; inconclusive means 30% to 80%; inactive means below 30%; also: 0% is about no effect
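TRPV1-expressing cells were cultured overnight at 35.5C and loaded with Fluo-8 calcium dye for 40 to 90 min at room temperature. After a 10 s baseline, compound was added and calcium influx was read kinetically for 3 min (ex 480/em 520 nm).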
Sfp inh: inhibitors of Bacillus subtilis Sfp phosphopantetheinyl transferase. Biochemical Sfp PPTase activity, qHTS. AID 1490. Q9F4F7. Potency, µM, inactives show max response, negative = inhibition, actives largely listed as inhibitors. 3.5% of 310,000 active; active = well fitted inhibition curve with a large enough effect; inconclusive = small, poorly fitted or top-dose-only effect, or another doubt; inactive = no such curve, though single readings can be large or run the other way;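 also: the enzyme is Sfp with the accession as filed and its product quenches rhodamine fluorescence; potency is read from the fitted curve at half-maximal effect; 0% = enzyme reaction without inhibitor and -100% = no enzyme wells; top concentration of the series not given in the record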
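Compounds were incubated with enzyme (final 15 nM) for 15 min at room temperature before substrate addition started the reaction. Fluorescence at 525 nm excitation, 598 nm emission was recorded immediately and after 30 minutes.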
gsp ag: activates gsp, the McCune-Albright syndrome mutation. gsp mutant cells, cAMP HTRF, 30 min; control for the full effect not named in the record. Potency, µM (doses to about 76.9 µM), inactives show at the top dose activation (cAMP increase), most hits filed as activators. 0.13% of 340,000 active. AID 624287; active = well fitted activation curve with a large enough effect; inconclusive = small, poorly fitted or top-dose-only effect, or another doubt; inactive = no such curve, though single readings can be large or run the other way; cell line not stated here;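 also: phosphodiesterase inhibitor Ro 20-1724 added with compounds to block cAMP breakdown; potency is read from the fitted curve at half-maximal effect; nearly all actives have a fitted effect of over 60% in size; about a fifth of the inactives were tested at one dose only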
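Cells in DMEM/10% FBS with G418 were pretreated with compounds in DMSO plus […] (300 uM stock) for 30 min at 37C. cAMP was measured by HTRF (cAMP-d2 plus anti-cAMP antibody-K) after 30 min at room temperature.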
Menin MLL FP FL: menin-MLL binding inhibition, fluorescein peptide. Fluorescence polarization, fluorescein-MLL peptide displacement from menin. FP activity change, % at 61.4 µM. 290,000 tested, under 10 active; inconclusive = falling polarisation curve, or a change in total fluorescence; inactive = total fluorescence flat and polarisation flat or rising; no compound was filed as active; the % refers to the polarisation; negative = inhibition;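 also: % of control where 0% means no effect; inhibitors lower the polarisation; unlabelled MLL peptide was the positive control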
gsp antagonist: antagonists of gsp mutant (McCune-Albright syndrome); gsp-mutant cells, cAMP HTRF, 30 min; control for the full effect not named in the record; Potency, µM (highest dose often 76.9 µM), inactives show at the top dose activity change, negative = inhibition, most hits filed as inhibitors; 0.4% of 340,000 active; active = falling curve of any shape with a large fitted effect; inconclusive = falling curve, mostly with a smaller effect; inactive = flat or rising curve; cell line not stated here;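 also: intracellular cAMP measured with PDE inhibitor Ro 20-1724 present during compound exposure; potency is read from the fitted curve at half-maximal effect; % is scaled to controls: 0 for no effect and ±100 for the full control effect; nearly all actives have a fitted effect of over 65% in size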
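Measurement of cellular cAMP by homogeneous time-resolved fluorescence following a 30 min compound exposure at 37C. The PDE inhibitor […] was present throughout; the assay buffer was DPBS with 0.05% BSA and 0.005% Tween 20.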
TRPML1 inh: human mucolipin-1 channel inhibition; Q9GZU1; 0.02% of 390,000 active; activity change, negative = inhibition, % (concentration not given with the values); TRPML1-inducible cells, Ca2+ dye fluorescence, FDSS; stronger effect = lower value; inhibition of EC80 agonist-evoked calcium signal; in the data active means activity change below about -50%; inconclusive means about -30% to -50%; inactive means above about -30%;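 also: stimulus is agonist 54-4 at its EC80 concentration; % is scaled to controls: 0 for no effect and ±100 for the full control effect; compound concentration not given in the record; the text of the record puts the active cut at -80%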
Target sequence (Q9GZU1 whole entry, looked up): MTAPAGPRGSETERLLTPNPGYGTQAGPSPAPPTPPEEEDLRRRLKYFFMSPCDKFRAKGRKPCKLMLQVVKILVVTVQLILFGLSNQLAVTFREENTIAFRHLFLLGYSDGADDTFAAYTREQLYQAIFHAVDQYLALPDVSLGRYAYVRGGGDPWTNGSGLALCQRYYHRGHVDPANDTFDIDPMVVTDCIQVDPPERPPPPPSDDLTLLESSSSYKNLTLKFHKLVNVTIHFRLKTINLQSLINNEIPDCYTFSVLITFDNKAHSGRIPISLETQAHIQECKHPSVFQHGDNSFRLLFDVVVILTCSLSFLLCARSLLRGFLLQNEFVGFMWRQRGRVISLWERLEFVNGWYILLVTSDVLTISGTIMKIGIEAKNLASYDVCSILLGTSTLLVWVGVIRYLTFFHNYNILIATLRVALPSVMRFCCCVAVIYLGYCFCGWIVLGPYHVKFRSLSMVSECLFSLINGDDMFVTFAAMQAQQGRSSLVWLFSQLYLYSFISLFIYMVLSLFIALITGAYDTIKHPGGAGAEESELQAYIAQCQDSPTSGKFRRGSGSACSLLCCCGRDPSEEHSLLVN
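TRPML1-DL cells, Tet-induced overnight (~16 h, 37 °C) at 1,500 cells/well, were loaded with Ca8 no-wash dye plus quencher for 45-90 min at room temperature. Compounds were pinned during FDSS kinetic reading; agonist 54-4 at EC80 (4 uM final) then added.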
ClpP mod: qHTS Assay for Activators of ClpP; purified B. subtilis ClpP, FRET peptide cleavage, 20 min; 1.9% of 340,000 active; Potency, µM (titrated, usually from 57.5 µM), for the others: at the highest dose activity change, negative = active; active = well fitted falling curve with a large enough effect; inconclusive = small, poorly fitted or top-dose-only effect; inactive = no such curve, though single readings can be large or run the other way; also: potency is read from the fitted curve at half-maximal effect; the source files actives as falling curves though it sought activators and does not explain the sign; nearly all actives have a fitted effect of over 65% in size; many hits overshoot -100%
Target sequence (P80244 whole entry, looked up): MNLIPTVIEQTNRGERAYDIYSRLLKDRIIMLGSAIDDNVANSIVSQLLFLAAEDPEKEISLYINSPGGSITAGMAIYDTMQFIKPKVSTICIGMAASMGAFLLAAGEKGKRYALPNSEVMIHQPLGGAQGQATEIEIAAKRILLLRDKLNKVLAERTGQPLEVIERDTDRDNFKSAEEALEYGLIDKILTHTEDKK
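FRET quenching reversal measured ClpP activation: 10 microg/mL B. subtilis ClpP at pH 8 with the FRET-FV decapeptide, read at 430 nm after 320 nm excitation. The 20-min minus 0-min signal was scaled between DMSO/no-enzyme wells and ADEP (5.8 microM final).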
The depositor's hits bear a star; ? = inconclusive; nt = not tested or not shown; [ ] = another dose, or the depositor's remark. This is a random part of the collection; any-hit rate near 4.9%.

structure	gsp antagonist	ClpP mod	Menin MLL FP FL	TRPV1 PAM	Sfp inh	TRPML1 inh	gsp ag
COc1ccc(CCNC(=O)c2cccc(-n3cnnn3)c2)cc1	6%	2.1%	nt	nt	nt	0	-3%[15.4 µM]
CN(Cc1ccccc1)C(=O)c1[nH]cnc1C(=O)NCC(=O)OC(C)(C)C	8%	1.7%	-0.2	-19	14%	-4	-14%
CC(C)CC(NS(=O)(=O)c1ccccc1)C(=O)O (configuration not stated)	7%	-0.1%	0.2	-1	21%	-3	-32%[inhibitor]
COCCNC(=O)C(c1ccc(C)o1)N(CC1CCCO1)C(=O)Cn1nnc2ccccc21 (configuration not stated)	-17%	0.9%	4.4	-21	-7%	1	-15%
CCOC(=O)C1CN(S(C)(=O)=O)c2cc(CC(=O)OC)ccc2O1 (configuration not stated)	2%	nt	0.2	1	-9%	-11	3%[15.4 µM]
CC1C(=O)N(Cc2cn(CCC3OCCCO3)nn2)CCS(=O)(=O)N1Cc1ccc(-c2ccc(Cl)cc2)cc1 (configuration not stated)	nt	-6.2%	nt	nt	nt	-6	?
NC[C@H]1O[C@H](O[C@H]2[C@H](O)[C@@H](O[C@H]3O[C@H](CO)[C@@H](O)[C@H](N)[C@H]3O)[C@H](N)C[C@@H]2N)[C@H](N)C[C@@H]1O	-1%	1.7%	-0.9	-4	-22%	-4	nt
CC(NC(=S)NC1CCC(C(C)(C)C)CC1)c1ccccc1 (configuration not stated)	-4%	1.8%	2.3	-4	10%	11	36%
COc1cccc(C2NC(=O)CCC2[N+](=O)[O-])c1 (configuration not stated)	9%	nt	-2.3	1	20%	2	-1%
COc1ccc(/C=C/C(=O)NC(=S)Nc2ccccn2)cc1	2%	7.1%	1.2	13	-5%	0	-2%
Cc1ccc(C)c(NC(=O)COC(=O)c2c(-c3ccccc3)noc2C)c1	nt	3.6%	nt	nt	nt	-11	-3%
C[C@H]1CN([C@@H](C)CO)C(=O)c2cc(NC(=O)c3ccncc3)ccc2O[C@H]1CN(C)Cc1ccc(C(=O)O)cc1	10%	0.0%	nt	nt	nt	13	10%
CCCNC(=O)C(Cc1ccccc1C)NC(=O)c1ccc(C(F)(F)F)cc1 (configuration not stated)	3%	1.0%	nt	-21	nt	-4	nt
C/C(=N/NS(=O)(=O)c1ccc(C)cc1)c1c(O)c2ccccc2oc1=O	-9%	nt	3.3	13	11%	18	-1%[15.4 µM]
CCOc1cc(NC(=S)Nc2cccc(OC)c2)c(OCC)cc1NC(=O)C(C)C	-9%	-2.1%	6.9	-1	1%	33	-9%
Cn1c(NNC(=O)C(c2ccccc2)c2ccccc2)cc(=O)n(C)c1=O	-1%	nt	3.6	-2	18%	0	-13%[15.4 µM]
CC(C)CC(NC(=O)C1CCCN1C(=O)[C@@H](C)NC(=O)OCc1ccccc1)C(=O)NCC(N)=O (some centres not stated)	10%	1.6%	-14	-6	5%	6	13%
Cc1nc(SCC(=O)NCCc2ccccc2)c2c(=O)n(C)c(=O)n(C)c2n1	19%	1.6%	3.5	4	-1%	-2	?
O=C(NCCCn1ccnc1)c1ccc(S(=O)(=O)Nc2ccccc2)cc1	1%	3.1%	0.7	-4	23%	-17	25%
O=C(O)CS(=O)(=O)c1ccc(Oc2ccc(S(=O)(=O)CC(=O)O)cc2)cc1	-1%	-1.3%	-2.5	-2	15%	-1	-12%
Cc1cnccc1NC(=O)c1cccs1	10%	1.0%	-4.5	2	1%	6	-18%
CN(C)S(=O)(=O)c1ccc(C(=O)NCc2cccs2)cc1	10%	-0.4%	2.1	nt	15%	-1	-31%[inhibitor]
COc1cc(/C=C/C(=O)OCC(=O)c2c(N)n(C)c(=O)n(C)c2=O)ccc1O	-4%	nt	-4.1	6	14%	1	4%
CC(C)(C)OC(=O)N1CCC(CNC(=O)c2ccccc2)CC1	4%	nt	2.0	8	10%	3	-4%[15.4 µM]
CCc1nnc(NC(=O)CN2CCN(Cc3cccc(F)c3)CC2)s1	4%	-1.4%	nt	-20	15%	20	40%
COc1ccc(OC)c(NC(=S)N2CCN(C(=O)C3CCCO3)CC2)c1 (configuration not stated)	-3%	-0.5%	nt	15	3%	-7	?
CCCn1c(C)nc2c(c1=O)c1nc3ccccc3nc1n2-c1ccccc1	0%	nt	nt	nt	nt	-27	-14%
COc1cc(OC)cc(C(=O)OCC(=O)N2CCCC2)c1	7%	nt	-4.0	13	12%	-6	-8%
COc1ccc(-c2ccc3c(c2)[C@@H]2C[C@H](N(C)S(=O)(=O)c4ccccc4)[C@H]([C@H](C)O)C(=O)N2CC3)cc1	?	-3.6%	nt	nt	nt	-3	nt
COc1ccc(C2OCC3(CO2)SC(N)=NC3=O)cc1 (configuration not stated)	4%	0.3%	-0.7	11	-5%	6	32%
CCOC(=O)N1CCN(S(=O)(=O)c2ccc3c(c2)SC(C)C(=O)N3)CC1 (configuration not stated)	?	-1.5%	2.2	2	7%	29	-5%
CCOc1ccccc1C(=O)N(Cc1ccccc1)Cc1cc2cc3c(cc2[nH]c1=O)OCCO3	26%	?	nt	nt	nt	-6	-14%
COc1ccccc1NS(=O)(=O)c1cccc(C(=O)NCc2ccco2)c1	6%	-0.5%	-0.9	4	12%	18	12%[15.4 µM]
CCOC(=O)Cn1c(-c2ccc(Cl)nc2)nc2ccccc21	-14%	10µM*	1.5	-2	0%	3	-21%
CN(C(=O)c1c(Cl)nc2sccn12)C1CCCCC1	-2%	-0.5%	0.4	21	?	-3	?
Cc1ccc(N2CCN(Cc3ccccc3)CC2=O)c(C)c1	3%	0.0%	-2.4	-7	?	-3	-25%
CN(CCOc1ccccc1)C(=O)c1cc([N+](=O)[O-])cc([N+](=O)[O-])c1	-3%	-19%	-1.5	1	1%	49	-1%[15.4 µM]
CCOc1cc(Cl)c(NC(C)=O)cc1OCC	3%	-2.1%	3.6	6	9%	22	6%
COC(=O)c1ccsc1NC(=O)c1ccc(Cl)s1	0%	-13%	6.0	13	13%	8	-39%[inhibitor]
c1ccc2c(CNc3ccc(CNc4ncn[nH]4)cc3)cccc2c1	-7%	-0.9%	2.0	26	-12%	11	3%
O=C(NC1CC2CCC1C2)c1ccco1 (configuration not stated)	9%	nt	2.8	1	14%	-12	-18%
CC(C)c1cc(CN2C(C)COCC2C)cc(C(C)C)c1O (configuration not stated)	-5%	-4.2%	nt	nt	nt	58	-10%
COc1ccccc1CNC(=O)c1oc2ccccc2c1C	-8%	1.3%	nt	-27	1%	8	-29%
CCCOc1ccccc1NC(=O)Nc1ccccc1Cl	6%	nt	-6.3	-3	-1%	-9	?
CCCCN(C(=O)c1c(CC)noc1C)c1c(N)n(CCC)c(=O)[nH]c1=O	3%	-1.9%	nt	1	nt	1	-12%
COC(=O)c1nc(NC(=O)c2ccc(Cl)cc2)n[nH]1	8%	0.1%	1.2	4	15%	28	-53%[inhibitor]
CCc1ccc(-c2cc(C(=O)Nc3ccc(S(=O)(=O)NC(C)=O)cc3)c3ccccc3n2)cc1	-17%	-12%	?	3	-4%	-4	-6%
Cc1ccc(OCC(=O)NCCc2c[nH]c3ccccc23)cc1	3%	nt	-1.9	0	-3%	2	14%[15.4 µM]
COC(=O)c1ccc2nc(C)cc(Nc3ccccc3C)c2c1	-3%	-4.1%	-5.4	-4	10%	-2	3%
COc1ccc(Cl)cc1NC(=O)CN(C)C(=O)c1ccc2c(c1)CC(c1ccccc1)OC2=O (configuration not stated)	-20%	-2.1%	nt	7	nt	8	-13%
Cc1ccccc1OCC(=O)NNC(=O)c1ccc(-n2cncn2)c([N+](=O)[O-])c1	8%	0.6%	nt	2	nt	1	-1%
CCCOC1CCCN(C(=O)c2ccc(OC)c(OC3CCN(C(C)C)CC3)c2)C1 (configuration not stated)	10%	-1.3%	4.1	0	-8%	-3	4%
CCCC1(C(=O)O)NC(c2ccc(OC)cc2O)C2C(=O)N(c3ccc(OC)cc3)C(=O)C21 (configuration not stated)	7%	-1.4%	-3.1	-4	-14%	-12	12%
Cc1cc(OCC(=O)OCC(=O)NC2CCCCC2C)ccc1Cl (configuration not stated)	8%	-0.1%	nt	-13	nt	7	-32%[inhibitor]
COc1ccc(N2CCN(C(=O)COC(=O)/C=C/c3ccc(C(F)(F)F)cc3)CC2)cc1	14%	nt	nt	-12	nt	30	-7%[15.4 µM]
Cc1csc(SCC(=O)Nc2cccc3nsnc23)n1	-9%[15.4 µM]	-9.2%	0.7	6	?	12	8%
COc1ccccc1OCCC(=O)Nc1nc(C)cs1	-2%	-1.3%	1.3	23	13%	4	-4%
c1ccc(NC2=NCCN2CCC2CCCC2)cc1	10%	1.4%	-2.1	-4	13%	11	-12%
COc1ccc(S(=O)(=O)N2CCC(C(=O)NCc3cccnc3)CC2)cc1OC	9%	nt	3.3	26	19%	-11	-3%
O=C(CSc1n[nH]c(-c2cccnc2)n1)Nc1ccccc1[N+](=O)[O-]	-4%	nt	1.2	0	4%	-2	2%

(list continues)
structure	gsp antagonist	ClpP mod	Menin MLL FP FL	TRPV1 PAM	Sfp inh	TRPML1 inh	gsp ag
CN(CC(=O)Nc1ccc(F)cc1)c1ccc(S(=O)(=O)N2CCCCC2)cc1[N+](=O)[O-]	-18%	5.5%	5.7	-14	25%	-10	0%
CCc1ccc(CN(C)Cc2nc(-c3cccc(Cl)c3)no2)nc1	-7%	nt	0.3	-8	-2%	-7	11%[15.4 µM]
O=S(=O)(Nc1nc2ccccc2nc1Nc1ccc2c(c1)OCO2)c1ccccc1	-9%	2.4%	-2.2	?	14%	18	0%
O=C(NCCN1CCN(C(=O)c2ccccc2Cl)CC1)C(=O)NCc1ccccc1	5%	nt	nt	0	9%	-12	-19%[15.4 µM]
CC(NC(=O)Cc1ccc([N+](=O)[O-])cc1)c1ccc2c(c1)OCO2 (configuration not stated)	0%	nt	3.6	-23	14%	7	-2%[15.4 µM]

Source: PubChem (National Center for Advancing Translational Sciences (NCATS))
